High-throughput results as filed in PubChem BioAssay.
D2 agonist – agonists of human D2 dopamine receptor (beta-arrestin). P14416. DiscoveRx PathHunter D2 beta-arrestin, luminescence, 90 min; 100% = 57 uM dopamine signal. activation, % (no concentration beside the values). 0.084% of 360,000 active; in the data active = activation above about 40%; inconclusive = about 15% to 40%; inactive = below about 15%; further: compound concentration not given in the record; the text of the record calls up to 30% inactive
Target sequence (P14416 whole entry, looked up): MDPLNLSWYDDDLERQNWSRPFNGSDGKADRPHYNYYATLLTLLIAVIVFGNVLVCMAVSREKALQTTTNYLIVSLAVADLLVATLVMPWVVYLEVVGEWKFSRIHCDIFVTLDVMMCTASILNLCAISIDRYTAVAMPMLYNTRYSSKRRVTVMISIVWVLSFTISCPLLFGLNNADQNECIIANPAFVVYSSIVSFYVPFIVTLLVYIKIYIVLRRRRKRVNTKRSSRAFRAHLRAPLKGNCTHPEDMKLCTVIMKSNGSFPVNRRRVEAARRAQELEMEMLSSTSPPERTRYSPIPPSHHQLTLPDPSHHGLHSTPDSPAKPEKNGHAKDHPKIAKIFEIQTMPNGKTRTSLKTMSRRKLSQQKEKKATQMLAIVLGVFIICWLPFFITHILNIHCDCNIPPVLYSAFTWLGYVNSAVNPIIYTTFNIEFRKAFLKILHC
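DiscoveRx PathHunter D2 beta-arrestin cells (2,100/well) attached overnight, then compound-stimulated 90 min at 37 C in HBSS/10 mM HEPES/0.1% Tween-20 buffer; beta-galactosidase complementation read by luminescence after 1 h at ambient temperature. Dopamine 57 uM final (EC100) as control.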
CtBP-E1A inh – CtBP/E1A binding inhibition. AlphaScreen GST-E1A/His-CtBP binding, 1536-well; active compounds read low; control for the full effect not named in the record. activity change, % (no concentration beside the values). 0.49% of 340,000 active. AID 651724; in the data active means activity change below about -65%; inconclusive means about -30% to -65%; inactive means above about -30%; further: on the % scale 0 is the no-effect control and ±100 the full control effect
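Protein mix (5X: 125 nM each GST-E1A, His-CtBP) was incubated with pinned compound 2 h at 37 deg C in dark, in 50 mM Tris pH 8.0 buffer with 300 mM NaCl. Glutathione donor and nickel acceptor beads followed; AlphaScreen signal read after 1 h.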
Six1-Eya2 blk – inhibitors of human Six1/Eya2 interaction; AlphaScreen GST-Six1/His-Eya2 binding, biochemical; active compounds read low; control for the full effect not named in the record; activity change, % (test concentration not listed); 0.56% of 360,000 active; in the data active = activity change below about -65%; inconclusive = about -30% to -65%; inactive = above about -30%; further: on the % scale 0 is the no-effect control and ±100 the full control effect
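Six1/Eya2 binding was read as AlphaScreen signal after compounds were pinned into GST-Six1 plus His-tagged Eya2 (5X stock 250/500 nM) in pH 8.0 Tris/NaCl/TCEP buffer, beads added, then incubated 1 h, 37 C, dark.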
PINK1 modulator – changes PINK1 expression | PINK1 immunofluorescence, high-content cytometry, 24 h | Potency, µM (top dose mostly 76.6 µM), inactives show at the top dose activation (PINK1 increase), actives largely listed as activators | 0.2% of 410,000 active; active = well fitted activation curve with a large enough effect; inconclusive = small, poorly fitted or top-dose-only effect; inactive = flat fitted curve, though single readings scatter; cell line not stated here;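 further: potency means the concentration at half of the fitted maximal effect; % of control where 0% means no effect; nearly all actives have a fitted effect of over 65% in size; a mitochondrial uncoupler was the plate control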
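PINK1 protein, normally rapidly degraded, was detected by immunofluorescence after 24 hour compound treatment of a stable cell line. Titration data (5 concentrations) came from laser-scanning cytometry, with CCCP-treated wells as controls.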
TRPML1 inh – blocks the human TRPML1 channel | Q9GZU1 | TRPML1-inducible cells, Ca2+ dye fluorescence, FDSS; active compounds read low; inhibition of EC80 agonist-evoked calcium signal | activity change, negative = inhibition, % (test concentration not listed) | 0.02% of 390,000 active | AID 624415; in the data active means activity change below about -50%; inconclusive means about -30% to -50%; inactive means above about -30%;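 further: stimulus is agonist 54-4 at its EC80 concentration; on the % scale 0 is the no-effect control and ±100 the full control effect; compound concentration not given in the record; the text of the record puts the active cut at -80%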
Target sequence (Q9GZU1 whole entry, looked up): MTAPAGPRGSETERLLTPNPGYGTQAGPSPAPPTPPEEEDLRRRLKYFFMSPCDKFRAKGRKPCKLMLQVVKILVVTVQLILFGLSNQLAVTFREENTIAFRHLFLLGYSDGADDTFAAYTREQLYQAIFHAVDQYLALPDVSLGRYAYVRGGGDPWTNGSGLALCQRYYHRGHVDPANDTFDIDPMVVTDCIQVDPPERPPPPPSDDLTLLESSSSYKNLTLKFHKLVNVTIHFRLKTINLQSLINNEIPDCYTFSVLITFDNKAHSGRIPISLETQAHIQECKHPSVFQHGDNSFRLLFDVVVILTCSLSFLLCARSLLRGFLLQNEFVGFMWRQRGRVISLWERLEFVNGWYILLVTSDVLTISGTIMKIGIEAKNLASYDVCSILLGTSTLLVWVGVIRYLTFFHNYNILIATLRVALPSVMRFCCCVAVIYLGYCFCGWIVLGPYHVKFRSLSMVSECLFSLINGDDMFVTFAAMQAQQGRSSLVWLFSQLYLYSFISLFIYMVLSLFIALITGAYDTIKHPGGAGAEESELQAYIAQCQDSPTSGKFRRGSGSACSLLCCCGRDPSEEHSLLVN
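TRPML1-DL cells, Tet-induced overnight (~16 h, 37 °C) at 1,500 cells/well, were loaded with Ca8 no-wash dye plus quencher for 45-90 min at room temperature. Compounds were pinned during FDSS kinetic reading; agonist 54-4 at EC80 (4 uM final) then added.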
TRPML1 agonist – human mucolipin-1 channel agonism. Q9GZU1. TRPML1-expressing cells, Ca2+ dye fluorescence, FDSS; host cell line not named in the record; reference of the full effect not given here. activation, % (test concentration not listed). 0.12% of 410,000 active. AID 624414; in the data active = activation above about 50%; inconclusive = about 30% to 50%; inactive = below about 30%; further: 0% is about no effect; the text of the record puts the active cut at 80%
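Cells: TRPML1-DL, 1X Tet inducer, ~16 h at 37 degrees C/5% CO2. Dye: ABD Ca8 no-wash + quencher, 45-90 min RT. Read: 10 s baseline, compound add, 110 s agonist phase; 54-4 EC80 (4uM final), 110 s antagonist phase.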
* hit, by the source's call; ? = inconclusive; / = not tested or not shown; [ ] = dose if it differs, or a comment.

Second line of a record: D2 agonist | CtBP-E1A inh | Six1-Eya2 blk | PINK1 modulator | TRPML1 inh | TRPML1 agonist
CC(NC(=O)c1ccccc1)C(=O)NC1CCCc2ccccc21 (stereo unspecified)
→ -2.8 | 0 | 14 | 1.5% | -1 | -0.2
Cc1ccc(NS(=O)(=O)c2ccc(C)c(NC(=S)NCCN3CCOCC3)c2)c(C)c1
→ -0.3 | 4 | 5 | 5.4% | -26 | 1.0
O=C(Nc1ccc2c(c1)CCC2)c1cccc(S(=O)(=O)Nc2ccccc2Cl)c1
→ 1.5 | -9 | 5 | -0.4% | 52 | 4.2
Cc1ccc(C(=O)N/N=C\c2ccc(-c3ccc([N+](=O)[O-])cc3)o2)cn1
→ 0.7 | 5 | -7 | 1.9% | 65 | 0.7
CCCCC(O)CN1CCC(c2ccccc2)CC1 (stereo unspecified)
→ -0.6 | -7 | -1 | -1.2% | 5 | 1.5
N#Cc1c(-c2ccc(Cl)cc2)c2c([nH]c1=S)CCCC2
→ -7.2 | -1 | -4 | 0.6% | -7 | 0.1
Cc1ccc2c(c1)c1nc3ccccc3nc1n2CCN1CCOCC1
→ -1.9 | 2 | 9 | -3.2% | 28 | 0.1
Cc1ccc2nc(SC(C)C(=O)Nc3cccc([N+](=O)[O-])c3)[nH]c2c1 (stereo unspecified)
→ -5.8 | -9 | -11 | ? | 17 | 0.3
CCCC(=O)O[C@H]1C[C@@H](C)N(C(=O)c2ccccc2)c2ccc(C)cc21
→ -3.2 | 7 | 12 | 13% | -14 | 0.1
O=C(CSc1nnc(-c2ccncc2)o1)Nc1cccc(F)c1
→ -0.9 | 7 | -2 | -0.7% | 10 | -0.7
O=C(Nc1nccs1)c1ccc(COc2ccc(Cl)cc2)o1
→ -3.3 | -10 | -7 | 2.0%[38.3 µM] | 44 | 1.8
CC(C)Oc1ccc(CNC(=O)C2CCN(C(=O)c3sccc3-n3cccc3)CC2)cc1
→ / | / | / | -0.2% | 13 | 0.1
Cc1cc(=O)n2nc(N3CCCC(C(=O)NC4CCCCC4C)C3)sc2n1 (stereo unspecified)
→ -4.6 | / | -5 | 1.0% | -1 | -0.7
CCOc1ccccc1NC(=O)C1CCCN(S(=O)(=O)c2cccs2)C1 (stereo unspecified)
→ / | / | / | 3.2% | 23 | -0.5
O=C(Cc1ccc(NC(=O)C2CCCN(C(=O)C3CCC3)C2)cc1)Nc1cccc(C(=O)N2CCCCC2)c1 (stereo unspecified)
→ -0.4 | -2 | 2 | -1.0% | -9 | -0.2
Cc1ccc(OC(=O)c2ccc(Cl)c([N+](=O)[O-])c2)cn1
→ 0.0 | ? | ? | 4.3% | 2 | 2.1
CCN(CC)S(=O)(=O)c1ccc(N2CCOCC2)c(NC(=O)c2ccccc2F)c1
→ -1.7 | 6 | 2 | 2.4% | 5 | 0.0
CCOc1cccc(C2c3c(oc4ccccc4c3=O)C(=O)N2c2nc(C)c(C(=O)OC)s2)c1 (stereo unspecified)
→ / | / | / | 0.1% | -13 | 0.2
COc1ccc(CCN2CCCC(CN(C)C(=O)c3ccoc3)C2)cc1 (stereo unspecified)
→ -1.6 | 2 | 5 | -1.2% | -16 | -0.4
CC1CCCC(C)N1C(=O)c1cccc2c1-c1ccccc1/C2=N/O (stereo unspecified)
→ -2.4 | -2 | -5 | 0.9% | 0 | -0.6
Cc1ccc(C(=O)n2nc(C#N)c(C#N)c2N)cc1
→ 1.6 | -2 | 1 | -0.4% | -13 | -0.1
Cc1nonc1NC(=O)c1oc2ccc(F)cc2c1C
→ -1.8 | / | 2 | 0.2% | 15 | 0.8
Brc1cnc2ccccc2c1N1CCCCC1
→ -0.2 | 10 | 5 | 5.5% | 13 | 3.8
COc1ccc2c(c1)cc(C(=O)N/N=C/c1c(O)c(C(=O)O)cc3ccccc13)n2C
→ -1.1 | -3 | -3 | 2.6% | 9 | 6.2
Cc1ccc(C2c3[nH]c4ccccc4c3CCN2C(=O)c2ccccc2Br)cc1 (stereo unspecified)
→ / | / | / | 0.8% | 10 | 1.4
Cc1ccc(-n2nnc(-c3nsc(NC(=O)c4cccc(Cl)c4)n3)c2C)cc1C
→ / | / | / | 0.6% | -9 | -0.5
CC(C)CCNC(=O)CSc1nc2ccccc2nc1Cc1ccccc1
→ / | / | / | 9.5% | 22 | 4.3
CC(OC(=O)c1cc(S(=O)(=O)N2CCOCC2)ccc1F)C(=O)NC1CCCCC1C (stereo unspecified)
→ 1.2 | 13 | 2 | 0.7% | 0 | -0.5
CC(C)NC(=O)N(C)C[C@@H]1Oc2ncc(-c3cccc(C#N)c3)cc2C(=O)N([C@H](C)CO)C[C@@H]1C
→ -6.7 | 5 | 6 | 1.4% | 6 | -0.4
COc1ccc(NC(=O)NC(c2ccccc2)c2ccccc2)c(OC)c1
→ -1.1 | -5 | 2 | 6.0% | 9 | 1.8
Cc1ccc2nsnc2c1NC(=O)COc1ccccc1F
→ 0.1 | 7 | -5 | -1.5% | 1 | 1.5
COc1ccc(-c2nc3c(Cl)cc(C(F)(F)F)cn3c2Cc2ccsc2)cc1OC
→ / | -1 | 2 | 1.5% | / | -0.4
COc1ccc(NC(=O)C(CC(=O)O)Cc2ccc(Br)cc2)cc1 (stereo unspecified)
→ -5.6 | -4 | 10 | 3.8% | -8 | 1.0
COc1c(Cl)cc(Cl)cc1C(=O)Nc1ccccc1N1CCN(C(C)=O)CC1
→ -3.0 | 1 | 8 | -5.8% | -10 | -0.7
Cc1ccc(Nc2nnc(SCC(=O)Nc3ncc(C(F)(F)F)cc3Cl)s2)cc1
→ -1.8 | 4 | -1 | 13% | -5 | 2.4
Cc1cc(-c2nnc(SCC(=O)Nc3ccccc3C(F)(F)F)n2N)n[nH]1
→ 2.9 | -16 | 2 | -0.6% | -13 | -0.1
COc1ccc(CNC(=O)CN(C(=O)c2csnn2)c2ccc(F)cc2)cc1
→ -3.1 | 3 | -1 | -1.1% | 1 | -0.2
CC(Oc1ccc2c3c(c(=O)oc2c1)CCC3)C(=O)NC1CCN(Cc2ccccc2)CC1 (stereo unspecified)
→ -3.1 | 0 | 1 | -0.3% | 10 | 0.0
NC(=O)COC(=O)CSc1ccc2ccccc2c1
→ -1.0 | 5 | 3 | 3.6% | -6 | -0.2
N#CC(C#N)=CNc1cccnc1
→ -3.3 | 0 | -1 | -0.2% | / | /

Structural class, those above containing a thiophene ring, fused or not.
Second line of a record: D2 agonist | CtBP-E1A inh | Six1-Eya2 blk | PINK1 modulator | TRPML1 inh | TRPML1 agonist
CC(C)Oc1ccc(CNC(=O)C2CCN(C(=O)c3sccc3-n3cccc3)CC2)cc1
→ / | / | / | -0.2% | 13 | 0.1
CCOc1ccccc1NC(=O)C1CCCN(S(=O)(=O)c2cccs2)C1 (stereo unspecified)
→ / | / | / | 3.2% | 23 | -0.5
COc1ccc(-c2nc3c(Cl)cc(C(F)(F)F)cn3c2Cc2ccsc2)cc1OC
→ / | -1 | 2 | 1.5% | / | -0.4

Following part:
Second line of a record: D2 agonist | CtBP-E1A inh | Six1-Eya2 blk | PINK1 modulator | TRPML1 inh | TRPML1 agonist
O=C(Nc1nnc(C2=COCCO2)o1)c1ccc([N+](=O)[O-])s1
→ 8.2 | -2 | 0 | 0.6% | -11 | 0.7
COc1ccc(N=Cc2sc3ccccc3c2Cl)cc1
→ -2.1 | 40 | 10 | -0.5%[38.3 µM] | 9 | -0.3
CCc1ccc(C2C(C#N)=C(N)Oc3cc(N)ccc32)cc1 (stereo unspecified)
→ -0.2 | 12 | 16 | 1.0% | -7 | 0.0
O=C(Cc1ccc(Cl)cc1)NN1C(=O)c2ccccc2C1=O
→ -0.1 | 2 | -1 | 0.3% | -2 | 4.3
COc1ccc(NC(=O)CC2Nc3ccccc3NC2=O)c([N+](=O)[O-])c1 (stereo unspecified)
→ -0.9 | 0 | 12 | 2.6% | 12 | -1.3
CC(=O)CSc1nc(-c2cccs2)c(C#N)c(=O)[nH]1
→ -1.7 | -12 | -2 | 0.5% | 15 | 1.4
Cc1ccc(S(=O)(=O)Nc2ccc(Br)cc2C(NCC(=O)O)c2ccccc2)cc1 (stereo unspecified)
→ -0.1 | ? | -9 | 2.4% | 18 | 0.7
CCOC(=O)c1ccc(COC(=O)CNC(=O)CNC(=O)c2ccc(OC)cc2)o1
→ -0.5 | -7 | 12 | -1.1% | 2 | -0.8
CNc1cncc(-c2cccc(C(=O)N(C)C)c2)n1
→ -5.4 | 6 | 1 | 0.9% | / | -0.3
COCC(=O)Nc1sc2c(c1C(=O)OC)CCCC2
→ 0.0 | 2 | 2 | -1.6% | 9 | 1.7
Cc1ccc(SCc2nc(-c3ccc(C(=O)NCc4ccc(Cl)cc4)cc3)oc2C)cc1
→ / | / | / | 0.0% | -9 | 1.2
COC(=O)C(C)(C)ONC(=O)Nc1ccccc1Cl
→ -1.5 | -1 | 10 | 3.1% | 40 | 1.0
CC(C)(C)c1ccc(C(=O)NC(=S)NCc2cccnc2)cc1
→ -0.9 | -13 | -17 | -2.3% | -3 | 3.1
COc1ccc(CCNC(=O)COC(=O)C2CCCCC2)cc1
→ -0.3 | 3 | 0 | 1.9% | 13 | 2.5
COc1cccc(-n2nc(-c3ccnn3-c3ccccc3)c(=O)n(C)c2=O)c1
→ 1.4 | -7 | 10 | -2.3% | -11 | -0.6
COc1ccc(CN2CCN(C(=O)CC(C)C)CC2)cc1
→ -2.0 | / | 7 | 0.5% | 14 | -0.2
COc1ccc(N(CC(=O)NCc2ccc3c(c2)OCO3)S(=O)(=O)c2ccccc2[N+](=O)[O-])c(OC)c1
→ -2.3 | 6 | -13 | 3.4% | 0 | 0.5
CCn1c(SCC(=O)N2CCN(C)CC2)nc2c1c(=O)n(C)c(=O)n2C
→ -0.5 | 3 | -1 | -2.1% | 18 | -0.3
O=C(Nc1ccc2oc(-c3ccncc3)nc2c1)c1ccccc1Cl
→ / | / | / | 11% | 13 | 1.0
CCOc1ccc(NC(=O)CCc2nnc3ccc(N4CCN(C)CC4)nn23)cc1
→ -2.8 | -8 | 0 | -0.6% | -5 | -0.7
Cc1oc(-c2cccc(Cl)c2)nc1CN1CCCC(C(=O)NCc2ccco2)C1 (stereo unspecified)
→ 0.7 | -9 | -8 | 0.0% | 24 | 1.4
Cc1scc(C(=O)N2CCN(c3ccc(Cl)cc3)CC2)c1C
→ -0.8 | -4 | -10 | 0.9% | -3 | -1.2
O=C(NCc1cccs1)C1CCCN1C(=O)Nc1cccc(F)c1 (stereo unspecified)
→ 1.4 | 11 | 4 | 0.8% | -3 | -0.1
COc1ccc(-c2nn(-c3ccccc3)cc2/C=C2/SC(=S)N(Cc3ccco3)C2=O)c(C)c1
→ -2.2 | 1 | -5 | ? | -4 | 0.2
O=C1OCCN1CCNCc1cn(-c2ccc(F)cc2)nc1-c1ccccc1Cl
→ -2.2 | -1 | 6 | 0.5% | 28 | -0.3
